Sa helicase inh = inhibitors of S. aureus replicative helicase, primary screen, biochemical, fluorescence unwinding readout; purified S. aureus helicase, fluorescence unwinding assay; about half of the hits fall short of the stated cut; 120,000 compounds, 0.05% hits; inhibition, %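 (tested at about 80 µM)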; AID 485395, 2010;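 active = both duplicates at 50% or more, or one of them with a favoured structure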;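 also: 0% = mean of negative control wells and 100% = mean of positive control wells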
MgrA-DNA mod = S. aureus MgrA activity modulators, primary screen, biochemical, S. aureus Newman, fluorescence polarization. MgrA-DNA binding. inhibition, %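 (about 10 µg/mL by stock and volumes)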. 84,000 compounds, 0.13% hits. AID 602314, 2012;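 active = above 50% in either of two replicates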;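 also: 0% = protein plus DNA without compound and 100% = DNA alone without protein; higher means less MgrA bound to DNA so lower polarization; one replicate is shown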
Active calls of the source: *; . = not tested or not shown; & = joins results of further samples.

Values run as follows: Sa helicase inh | MgrA-DNA mod
- Cc1nn(CCC#N)c2nc(C(F)(F)F)[nH]c(=O)c12
    -2&11 | -1.0
- COc1cc(SC)ccc1C(=O)N1CCC(C(N)=O)CC1
    8 | 2.5
- COC(=O)c1ccc2c(=O)n(CCCC(=O)O)c(=S)[nH]c2c1
    -1 | .
- CCn1c(CCNC(=O)C(C)(C)C)nc2ccccc21
    -15 | .
- Cc1cc(N2CCCCC2)nc2ccc(NC(=O)c3ccc(Br)o3)cc12
    29 | .
- O=C(/C=C/c1ccco1)NCCc1csc2nc(-c3ccc(F)cc3)nn12
    3 | .
- Clc1ccc(-c2cnc3nonc3n2)cc1
    15 | .
- O=C(O)CC(NC(=O)C(c1ccccc1)c1ccccc1)c1ccco1 (stereo unspecified)
    10 | -2.1
- O=C(CS(=O)(=O)Cc1ccc(Cl)c(Cl)c1)Nc1ccc(F)c(Cl)c1
    . | -0.1
- CCc1ccc(N(C)S(=O)(=O)c2ccc3[nH]cc(C(=O)N4CCCCCC4)c(=O)c3c2)cc1
    4 | -4.7
- CC(C)NC(=O)c1ccc2c(c1)S(=O)(=O)c1ccccc1C2=O
    24 | 0.3
- Nc1ncccc1C(=O)OCCN1C(=O)c2ccccc2C1=O
    -5 | .
- Cc1cc(Br)ccc1OCC(=O)NCCC1=CCCCC1
    15 | 0.2
- C=CCNS(=O)(=O)c1cccs1
    -10 | 0.8
- CC(=O)Nc1ccc(-n2sc3c(c2=S)-c2cc(C)ccc2NC3(C)C)cc1
    -7 | 2.2
- Cc1cc(C(=O)O)no1
    -5 | .
- CC1(C)CC(=O)C2=C(C1)Nc1ccccc1N(C(=O)Cc1ccccc1)C2c1ccc([N+](=O)[O-])cc1 (stereo unspecified)
    . | 0.9
- CN=C(Nc1ccccc1OC)SC
    . | 1.4
- COCCOC(=O)C1=C(C)NC2=C(C(=O)CC(C)(C)C2)C1c1coc2ccccc2c1=O (stereo unspecified)
    . | -0.3
- CCOC(=O)/C=C(\C)NC1CC(C)(C)NC(C)(C)C1
    -17 | 1.4
- COc1ccc(CN=C(C)c2c(O)[nH]c(=O)[nH]c2=O)cc1
    -5 | .
- O=C(NCCc1nnc2ccc(SCC(=O)N3CCc4ccccc43)nn12)c1ccccc1
    -8 | .
- Cn1c(-c2ccccc2)cnc1NC(=O)c1ccc(F)cc1
    7 | 3.9
- OCCNc1nc(N2CCOCC2)ncc1F
    8 | 5.0
- Cc1noc(C)c1COc1ccc(C(=O)OCC(=O)NC2CCCc3ccccc32)cc1 (stereo unspecified)
    12 | .
- CC(C)(C)c1cc(/C=C2\Cc3ccccc3C2=O)cc(C(C)(C)C)c1O
    . | -3.4
- O=C(O)C1CC(=O)N(Cc2ccncc2)C1 (stereo unspecified)
    -3 | -2.4
- CC1CC(C)N(C(=O)c2cc(-c3ccc(F)cc3)no2)C(C)C1 (stereo unspecified)
    2 | -1.9
- O=C(OCCN1C(=O)c2cccc3c(N4CCOCC4)ccc(c23)C1=O)c1ccc(Cl)cc1
    . | -1.4
- COc1ccc(NC(=O)CCc2c(C)c3c(C)nn(-c4cccc(F)c4)c3n(C)c2=O)cc1OC
    16 | .
- CCCN(CCC)C(=O)c1c(C)[nH]c(C(=O)OCC)c1C
    -6 | .
- Cc1cnc(C(=O)OCC(=O)C(C)(C)C)cn1
    -7 | .
- CCOC(=O)N1CCC(N2Cc3cccc(C(=O)NCc4ccc5c(c4)OCO5)c3C2=O)CC1
    2 | .
- S=C(NCc1ccco1)SCc1cn2ccccc2n1
    -26 | .
- CC(C)(C)C(=O)C(CO)(Oc1ccc(Cl)cc1)n1cncn1 (stereo unspecified)
    -12 | .
- CC(=O)N=c1sc(S(N)(=O)=O)nn1C
    . | 6.5&0.9
- O=C(NCc1ccco1)c1ccc(-n2c(=S)[nH]c3ccccc3c2=O)cc1
    6 | 2.1
- Clc1cc(N=Cc2ccccn2)c(Cl)cc1N=Cc1ccccn1
    -15 | -0.8
- CN1CCN(c2ccc(NC(=O)c3cccc4c3OC(C)(C)C4)cc2)CC1
    . | 0.8
- Cc1oc(-c2ccccc2)nc1CSc1nncn2c1cc1sccc12
    -12 | .
- Cc1ccc(S(=O)(=O)CCC(=O)Nc2ccc(S(N)(=O)=O)cc2)cc1
    8 | .
- Cc1c(C(=O)N2CCCCC2)sc2nc(-c3ccccc3)cn12
    8 | .
- O=C(O)CONC1=NS(=O)(=O)c2ccccc21
    -14 | .
- O=C(CSc1ncc(CO)n1Cc1ccc(Cl)cc1)N1CCN(c2ccccc2)CC1
    6 | .
- CC/C(=N\OC(=O)Nc1cc(Cl)cc(Cl)c1)c1ccc(-c2ccccc2F)cc1
    . | -1.0
- Cc1nc(-c2ccccc2)sc1C(N)=O
    1 | -0.6
- O=C(NCC1COc2ccccc2O1)Nc1ccccc1F (stereo unspecified)
    11 | .
- Cc1c(C)c(C)c2[nH]c(SCc3nc(-c4ccc(Cl)cc4)no3)nc2c1C
    . | 0.8
- O=C(O)CC1(CC(=O)O)CCCC1
    1 | .
- CC1=CC(=C2C(=O)NC(=S)NC2=O)C=C(C)N1CC(C)C
    -3 | 6.0
- COc1ccc(CN2CCN(c3ncnc4scc(-c5ccc(Cl)cc5)c34)CC2)cc1F
    6 | -0.2
- COc1ccc2c(c1)CCc1c-2n[nH]c1C(=O)O
    -19 | .
- C=CCc1cccc2cc(C(=O)OCC)c(=O)oc12
    -21 | .
- Nn1c(SCC(=O)N(Cc2ccco2)C2=CCCCC2)nnc1-c1ccc(OC(F)F)cc1
    -16 | .
- CC(=O)OC(COc1ccccc1)Cn1cnc2ccccc21 (stereo unspecified)
    11 | 1.2
- CCOC(=O)N1CCN(C(=O)c2cc(-c3cccc(OC)c3)n[nH]2)CC1
    11 | .
- CCOC(=O)c1c(NC(=O)c2sc3cccc(Cl)c3c2Cl)sc2c1CCCC2
    . | -2.2
- O=C(O)c1cc(=O)c2c(O)cccc2o1
    . | -5.7
- COc1cc(SC)ccc1C(=O)NN1CCOCC1
    -8 | .
- CCOc1cc(OCC)cc(C(=O)Nc2ccc3oc(-c4cccc(F)c4)nc3c2)c1
    . | -1.8

Another view of part of the listing above:
Sa helicase inh	MgrA-DNA mod	SMILES
11	1.2	CC(=O)OC(COc1ccccc1)Cn1cnc2ccccc21 (stereo unspecified)
11	.	CCOC(=O)N1CCN(C(=O)c2cc(-c3cccc(OC)c3)n[nH]2)CC1
.	-2.2	CCOC(=O)c1c(NC(=O)c2sc3cccc(Cl)c3c2Cl)sc2c1CCCC2
.	-5.7	O=C(O)c1cc(=O)c2c(O)cccc2o1

Additional results
Values run as follows: Sa helicase inh | MgrA-DNA mod
- Cn1ccnc1SCC(=O)c1ccc2ccccc2c1
    -11 | .
- COCCNC(=O)c1ccc2c(Cl)c3c(nc2c1)CCCC3
    -18 | .
- CCC1(CC)Cc2ccccc2C(Nc2c(C)n(C)n(-c3ccccc3)c2=O)=N1
    11 | 2.1
- CN(C)c1cnn(-c2cnc3ccccc3n2)c(=O)c1Cl
    . | -0.9
- CSC(=S)N/N=C(\C)c1ccccc1
    1 | .
- COCc1nc2ccccc2[nH]1
    5 | .
- CC(C)CCNC(=O)CN1CCOc2ccccc21
    -3 | 1.1
- CCOc1ccc2[nH]c(=O)c(CN(CC3COCCO3)C(=O)C3CC3)cc2c1 (stereo unspecified)
    17 | 1.5
- Cc1nnc2n1N=C(c1ccc(-c3cc(Cl)ccc3Cl)o1)CS2
    -31 | .
- CCN1CCN(C(=O)C(Cc2ccccc2)NS(=O)(=O)c2ccc3c(c2)c(=O)n(C)c(=O)n3C)CC1 (stereo unspecified)
    -16 | .
- O=C(N[C@@H](Cc1ccccc1)c1nc2ccccc2[nH]1)c1ccc(=O)[nH]c1
    -3 | .
- NS(=O)(=O)c1cccc(C(=O)N2CCCc3ccccc32)c1
    -16 | .
- N#Cc1ccccc1CS(=O)(=O)N1CCOCC1
    -8 | .
- Cc1ccc(C#Cc2ccc(C)cc2)cc1
    . | 0.6
- CSc1ncc(Cl)c(C(=O)Nc2c(C(=O)Nc3ccccc3)oc3ccccc23)n1
    18 | 0.9
- CN=C(Nc1cc(C)nn1CCC#N)c1ccccc1
    3 | .
- O=C(COc1cccc(-n2cnnn2)c1)N1CCCCCC1
    -8 | .
- COc1ccc(C(C#N)c2nc3ccccc3nc2C(F)(F)F)cc1 (stereo unspecified)
    . | 1.8
- O=C(Nc1cccc(C(F)(F)F)c1)N1CCC(CN2CCOCC2)CC1
    9 | .
- O=S(=O)(Nc1ccc2ccccc2n1)c1ccccc1
    . | -0.7
- CC(=O)NC(c1ccccc1)(c1ccccc1)C(F)(F)F
    -9 | -0.7
- Fc1ccc(-c2cnc3c(Cl)cc(C(F)(F)F)cc3n2)cc1
    . | 1.0
- CCOc1cc(-n2cnnn2)c(OCC)cc1NC(=O)c1cc2cccc(OC)c2oc1=O
    5 | 1.7
- O=S(=O)(NCCn1ccc2ccccc21)c1ccccc1
    -17 | .
- Cc1nn(-c2ccccc2)c(C)c1CN=Cc1c(O)[nH]c(=O)[nH]c1=O
    -15 | .
- CCN1/C(=C2\C(=O)N(c3ccccc3)N=C2C)C=Cc2cc(OC)ccc21
    -16 | .
- Cc1ccc(-n2nnnc2SCC(=O)N2Cc3ccccc3CC2C(=O)O)cc1 (stereo unspecified)
    8 | .
- O=C(Oc1ccc(C=Nc2ccccc2Cl)cc1)c1cccnc1
    -11 | .
- O=C(c1ccc2c(c1)N(Cc1ccccc1)C(=O)CS2=O)N1CCCCC1 (stereo unspecified)
    9 | -0.7
- CCOC(=O)c1c(-c2ccccc2)oc2ccc(N(C(C)=O)S(=O)(=O)c3ccc(OC)cc3)cc12
    5 | 1.5
- CCc1nnc(NC(=O)Cc2ccccc2)s1
    -16 | .
- COc1ccc(CCN2C(=O)CSC2=Nc2cc(Cl)cc(Cl)c2)cc1OC
    . | -2.1
- N#Cc1ccc(-c2ccccc2)nc1SCCN1CCOCC1
    5 | -0.3
- CC1CNCCN1S(=O)(=O)c1cccc2cnccc12 (stereo unspecified)
    . | -1.5
- O=C(Cc1ccc2c(c1)OCCO2)Nc1ccc(-c2nnc3n2CCCCC3)cc1
    -13 | .
- CCc1nc(C)ccc1OCC(N)=O
    7 | .
- CC(C)N1C(=O)CCC1C(=O)NCCc1ccc(Cl)cc1 (stereo unspecified)
    4 | 2.1
- CCn1cc(Br)c(C(=O)Nc2ccccc2C(C)(C)C)n1
    35 | .
- Cc1[nH]c(=O)[nH]c(=S)c1C#N
    -9 | .
- CC(N)c1ccc(Br)cc1 (stereo unspecified)
    -4 | .
- COc1cccc(-n2c(SCC(=O)Nc3ccc4[nH]c(=O)[nH]c4c3)nc3ccccc3c2=O)c1
    2 | .
- CC1=CC(=Nc2c(C)n(C)n(-c3ccccc3)c2=O)c2ccccc2C1=O
    -3 | .
- CCSc1nnc(-c2c[nH]c3ccccc23)n1CC
    20 | .
- COc1ccc(-c2noc(COC(=O)C3=NN(c4cc(C)ccc4C)C(=O)CC3)n2)c(OC)c1
    -3 | .
- [O-][n+]1c2c(nn1-c1ccccc1)/C(=N\O)CCC2
    -4 | 0.1
- Cc1ccc(-c2noc(CCCC(=O)NCC3CCCO3)n2)cc1 (stereo unspecified)
    -10 | .
- CCCCCc1ccc2c(c1)Cc1cc(C(C)=O)ccc1-2
    . | -0.7
- O=C(CCSc1ccccc1)Nc1nc(-c2cccnc2)cs1
    -13 | .
- N#CCSc1nc2nccnc2c(=O)n1Cc1ccccc1Cl
    1 | -4.3
- O=C(Oc1cccnc1)C1c2ccccc2Oc2ccccc21
    . | -1.6
- O=C(CSc1nnc(Cc2ccccc2)o1)c1ccccc1
    9 | -1.1
- Cc1ccc(-c2ncns2)cc1
    . | 2.2
- COc1ccc2c(Sc3ccccc3)c(C(=O)N3CCCCC3)[nH]c2c1
    6 | 0.9
- CC(Sc1ccccc1)C(=O)NN=C1CCCC1 (stereo unspecified)
    13 | 0.8
- CCNc1ccc(-c2nc3ccccc3[nH]2)cn1
    -15 | .
- CC1CCc2[nH]c(=S)nc(C(F)(F)F)c2C1 (stereo unspecified)
    27 | .
- c1nc(N2CCCCCC2)c2ccsc2n1
    -12 | -0.7
- CCOC(=O)c1sc(N)c(C#N)c1COC(=O)C1CSC2(C)CCC(=O)N12 (stereo unspecified)
    -70 | .
- CC(Sc1ccc(Cl)cc1)C(=O)NCc1ccncc1 (stereo unspecified)
    -4 | 2.0
- CCN(CC)CCCC(C)Nc1c2ccc(Cl)cc2nc2ccc(OC)cc12 (stereo unspecified)
    . | 60*

New compounds follow.
Values run as follows: Sa helicase inh | MgrA-DNA mod
- CC(C)(CC(=O)O)CC(=O)N1CCN(c2ccccn2)CC1
    . | -1.6
- CN(C)S(=O)(=O)c1ccc(C(=O)NCCC23CC4CC(CC(C4)C2)C3)cc1
    -9 | -2.0
- Cc1cc(C)cc(NC(=O)CN2CCN(S(=O)(=O)c3ccccc3)CC2)c1
    4 | .
- O=C(Cc1ccccc1)NC1CCN(Cc2ccccc2)CC1
    . | -1.7
- Cc1ccc(/C(O)=C2/C(=O)C(=O)N(CCCN(C)C)C23C(=O)N(C)c2ccccc23)cc1F (stereo unspecified)
    -6 | .
- CCOC(=O)/C(=C\c1cccs1)C(=O)CN1C(=O)c2ccccc2S1(=O)=O
    8 | .
- Cc1ccc(C(=O)CSc2ncn[nH]2)c(C)c1
    -20 | .
- COc1ccc(/C=N/NC(=O)Nc2nonc2N)cc1
    -2 | .
- CCCCC/C=C\C[C@H](O)/C=C/C=C\C/C=C\CCCC(=O)O
    . | 3.0

Fetched by compound from the entries so far (two):
Values run as follows: Sa helicase inh | MgrA-DNA mod
- CC(C)(CC(=O)O)CC(=O)N1CCN(c2ccccn2)CC1
    . | -1.6
- Cc1cc(C)cc(NC(=O)CN2CCN(S(=O)(=O)c3ccccc3)CC2)c1
    4 | .

Arranged by SMILES length (descending): some entries from above.
Values run as follows: Sa helicase inh | MgrA-DNA mod
- CCOC(=O)N1CCC(N2Cc3cccc(C(=O)NCc4ccc5c(c4)OCO5)c3C2=O)CC1
    2 | .
- CSc1ncc(Cl)c(C(=O)Nc2c(C(=O)Nc3ccccc3)oc3ccccc23)n1
    18 | 0.9
- CC(C)(C)C(=O)C(CO)(Oc1ccc(Cl)cc1)n1cncn1 (stereo unspecified)
    -12 | .

A portion of the library; the hit share may differ from the screen's.
